Screening results as filed in PubChem BioAssay.
VACV mCherry inh: qHTS for Stage-Specific Inhibitors of Vaccinia Orthopoxvirus: mCherry Reporter Primary qHTS. Vaccinia virus mCherry reporter infection, fluorescence; about a quarter of the inactives have no number. AID 720579, 2013. 310,000 compounds, 0.63% hits. Potency, µM (titrated, usually from 36.5 µM), for inactives: at the top dose activity change, negative = inhibition, usual class: inhibitors; active = well fitted inhibition curve with a large enough effect; inconclusive = small, poorly fitted or top-dose-only effect; inactive = no such curve, though single readings can be large or run the other way; tested in A549 cells; note: nearly all actives have a fitted effect of over 35% in size; inactives centre near -10
VACV Venus inh: qHTS for Stage-Specific Inhibitors of Vaccinia Orthopoxvirus: Venus Reporter Primary qHTS; Vaccinia virus Venus reporter expression, fluorescence; Potency, µM (series often up to 36.5 µM), for inactives: at the highest dose activity change, negative = inhibition, usual class: inhibitors; 330,000 compounds, 0.46% hits; AID 720580, 2013; active means well fitted inhibition curve with a large enough effect; inconclusive means small, poorly fitted or top-dose-only effect; inactive means no such curve, though single readings can be large or run the other way; tested in A549 cells; note: nearly all actives have a fitted effect of over 30% in size; inactives centre near -10
Active calls of the source: *; i = inactive; ? = inconclusive; / = no result given; & = joins results of further samples; [ ] = dose if it differs, or a comment. % is set by controls: 0 for no effect and ±100 for the full control effect; potency is the fitted concentration of half-maximal effect.

Values run as follows: VACV mCherry inh, VACV Venus inh
O=C1c2ccc(-c3ccc(Cl)c(C(F)(F)F)c3)cc2S(=O)(=O)c2cccc(C(=O)N3CCN(c4ncc(Br)cn4)CC3)c21
    i, -30%
CCN(C(=O)Cn1c(=O)oc2cc(S(=O)(=O)N3CCCC3)ccc21)c1cccc(C)c1
    -29%, -11%
CCCNc1cc(=O)n(C)c(=O)n1C
    /, -19%
CCOC(=O)N1CCN(C(=O)C[C@@H]2C[C@@]3(C(=O)OCC)CCCC=C3N(Cc3ccccc3)C2=O)CC1
    -3%, -3%
CC1=CC(C)(C)NC(=S)N1c1ccc(C)c(C)c1
    -25%, -23%
COc1ccc(NC(=O)c2ccccc2)cc1NS(=O)(=O)c1ccc(F)cc1
    -17%, -5%
COc1ccc(C)cc1NC(=O)CNC(=O)c1sc2ccccc2c1Cl
    -13%, -12%
Cc1cc(C)nc(SCc2ccccc2C#N)n1
    -7%[1.46 µM], -11%
COc1ccccc1CNc1nc(-c2ccco2)nn1S(=O)(=O)c1ccc2ccccc2c1
    -16%, -12%
COc1cccc(C=Nc2ccccc2C#N)c1O
    -17%, -8%
Cc1cc(Nc2ccc(Br)cc2)n2nc(C)nc2n1
    ?, -21%
Cc1cccnc1NC(=O)C(C)Oc1ccccc1 (stereo not drawn)
    -15%, -9%
CCN(C(=O)c1cc2c(=O)oc3ccc(C)cc3c2s1)c1cc(OC)ccc1OC
    -10%, -8%
c1ccc(CSc2nnc(-c3c[nH]c4ccccc34)o2)cc1
    /, -18%
O=C(COc1ccc(Cl)cc1)Nc1nnc(-c2ccco2)o1
    0%, -5%
CC1=C(C(=O)N2CCOCC2)CC(CC(=O)NC(c2ccccc2)c2ccccc2)C(=O)N1CCCN1CCCC1=O (stereo not drawn)
    -11%, 0%
CC(=O)OCC1OC(OC(C)=O)C(NC(=O)Cc2ccccc2)C(OC(C)=O)C1OC(C)=O (stereo not drawn)
    -4%, -4%
Cc1ccc(C(=O)N/N=C/c2ccc([N+](=O)[O-])s2)cc1
    -12%[1.46 µM], ?
Nc1ccc(SC(F)(F)F)cc1
    i, -8%
O=C(CN1C(=O)C2C3c4ccccc4C(c4ccccc43)C2C1=O)Nc1cccc(C(=O)O)c1 (stereo not drawn)
    -13%, -10%

Of the compounds above, these have an aryl thioether with sulfur outside any ring:
Values run as follows: VACV mCherry inh, VACV Venus inh
Cc1cc(C)nc(SCc2ccccc2C#N)n1
    -7%[1.46 µM], -11%
c1ccc(CSc2nnc(-c3c[nH]c4ccccc34)o2)cc1
    /, -18%
Nc1ccc(SC(F)(F)F)cc1
    i, -8%

Next results follow:
Values run as follows: VACV mCherry inh, VACV Venus inh
CCC(C)NC(=O)C1CCN(C(=O)c2ccc(-n3ccc4ccccc43)s2)CC1 (stereo not drawn)
    -18%, -23%
Cc1ccccc1Nc1nnc(SCC2CCCCO2)s1 (stereo not drawn)
    -7%, -14%
O=c1ccc(Br)c[nH]1
    -10%, ?
Cc1cc(-c2nnc(CCC(=O)NCc3cc(F)cc(C(F)(F)F)c3)o2)no1
    -19%, -15%
COC(=O)c1ccc(COC(=O)CCS(=O)(=O)c2ccc(C)cc2)cc1
    i, 5%
COc1ccc(/C=C2\SC(=O)N(CCNC(=O)C3CCN(S(=O)(=O)c4cccs4)CC3)C2=O)cc1
    i, -9%
COC(=O)CCCCC1=CCC2C(=O)C=C(O)C2C1 (stereo not drawn)
    i, -3%
CC(=O)Nc1cnc(-c2ccccc2C(C)=O)cn1
    -8%, 6%
CCOC(=O)c1csc(-c2ccc3c(c2)CCO3)n1
    i, -18%
O=C(CN1C(=O)NC2(CCCc3ccccc32)C1=O)NCC(F)(F)F (stereo not drawn)
    16%, -1%
COCC(C)n1c(C)cc(C(=O)COC(=O)c2n[nH]c3ccccc23)c1C (stereo not drawn)
    -27%, -20%
COc1ccc(NC(=O)C2C3C=CC4(O3)C2C(=O)N(CCN2CCCCC2)C4C(=O)NC2CCCC(C)C2C)cc1 (stereo not drawn)
    -23%, -28%
Cc1ccc(-c2cc(C(=O)N(Cc3ccccc3)Cc3ccco3)no2)cc1F
    -10%, -3%
CC(C)(C)[C@H]1C=C(C(=O)N2CCN(Cc3ccc4c(c3)OCO4)CC2)O[C@@H](OCc2ccc(CO)cc2)C1
    -15%, ?
O=C(Nc1ccc2c(c1)OCCO2)C(C1CC1)n1c(=O)c(-c2ccccc2)nc2ccccc21 (stereo not drawn)
    i, -18%
CCC(=O)N1CCCc2cc(S(=O)(=O)N3CCC(C(=O)Nc4ccc(F)c(F)c4)CC3)ccc21
    -17%, 4%
COc1ccc(-c2cc3cc(F)ccc3cn2)cc1
    -8%, -22%
Cc1ccc(-c2nnn(CC(=O)N(c3cnc4ccccc4c3)C(C(=O)NC3CCCC3)c3ccncc3)n2)o1 (stereo not drawn)
    -16%, -14%
CCOC(=O)N1CCN(S(=O)(=O)N2CCCC(C(=O)NCc3cccc(OC)c3)C2)CC1 (stereo not drawn)
    -11%&-6%, -3%&-11%
CCc1cc(-c2nnn(CCC3COCCO3)c2C(C)(C)O)ccc1-c1cn(CCc2c[nH]c3ccccc23)nn1 (stereo not drawn)
    -25%, ?

Further records.
Values run as follows: VACV mCherry inh, VACV Venus inh
COc1cccc(CNC(=O)CCCn2ncn3c(cc4occc43)c2=O)c1OC
    -9%, -8%
Cc1ccccc1-c1cc2c(c3c1ccn3C)C1CCC2O1 (stereo not drawn)
    21%, 5%
CCCS(=O)(=O)NC(=O)C1(C)CCN(C(=O)/C=C/c2ccccc2)C1 (stereo not drawn)
    1%, 3%
O=S(=O)(Nc1ncccn1)c1ccc(NC(=S)NCc2cccnc2)cc1
    i, -10%
COc1ccc2oc3ccccc3c(=O)c2c1
    7%, 15%
CCN1CCN(CC(O)COCCOc2ccc(Br)cc2)CC1 (stereo not drawn)
    -11%, 5%
O=C(c1cccnc1)C1CCCN(Cc2nc(Cc3ccccc3)no2)C1 (stereo not drawn)
    0%, -15%
COc1ccc(NC(=O)COc2ccccc2Cc2ccccc2)cc1S(N)(=O)=O
    ?, -29%
CCCCN(C(=O)Nc1ccc(OCC)cc1)C1CCN(C(C)=O)CC1
    i, -5%
Cc1nc(Nc2ccc(S(=O)(=O)N3CCCC3)cc2)c2nnn(Cc3ccccc3)c2n1
    -24%, -27%
COc1cc(NC(=O)c2ncn(-c3ccccc3)n2)cc(OC)c1
    -7%, -10%
Cc1cccc(Nc2nc(N)c([N+](=O)[O-])c(N3CCCC(C)C3)n2)c1 (stereo not drawn)
    13µM*, 10µM*
CCOC(=O)c1ccc(NS(=O)(=O)c2cn(C)c(C)n2)cc1
    -8%, -2%
Cc1ccc(S(=O)(=O)N=S(CCO)CCO)cc1
    -15%, -19%
Cc1ccccc1C1C=C(c2ccc(Cl)cc2)Nc2nnnn21 (stereo not drawn)
    -13%, -23%
Cc1cc(NC(=O)c2cccc(COc3ccc(Br)cc3)c2)no1
    i, -25%
CCCCCCCN1C(Nc2ccccc2)=NC[C@@H]1CC(C)C
    -17%, ?
CC(=O)c1cccc(CN2CCC(C(=O)Nc3cccc(-c4ccn[nH]4)c3)CC2)c1
    -4%, -17%
O=C1NC2(CCCC2)Oc2ccccc21
    -1%, -10%
Cc1cc(C(=O)Nc2ccccc2-c2nc(CNC(=O)C3(C)CCCCC3)c(C)o2)c(C)o1
    -8%, 2%

3 entries already listed, ordered by SMILES length, smallest number first.
Values run as follows: VACV mCherry inh, VACV Venus inh
CCCCCCCN1C(Nc2ccccc2)=NC[C@@H]1CC(C)C
    -17%, ?
Cc1cc(NC(=O)c2cccc(COc3ccc(Br)cc3)c2)no1
    i, -25%
O=S(=O)(Nc1ncccn1)c1ccc(NC(=S)NCc2cccnc2)cc1
    i, -10%

The listing continues:
Values run as follows: VACV mCherry inh, VACV Venus inh
CCOC(=O)C(Cc1ccccc1)C(=O)NCc1ccccc1 (stereo not drawn)
    -10%, -13%
COc1ccc(C(=O)Nc2ccc(-c3nc4cc(C)ccc4o3)c(O)c2)cc1
    -1%, -22%
Cn1c(=O)c2c(-c3ccccc3)n3c(c2n(C)c1=O)C(c1cc(Cl)ccc1O)Nc1ccccc1-3 (stereo not drawn)
    ?, ?
O=C(Cn1ncc2c(=O)oc3ccccc3c21)N1CCN(c2ccc(Cl)cc2)CC1
    1%, 6%
COc1ccc2[nH]c3c(c2c1)CNCC3
    -1%, -4%
CN(Cc1ccccc1)C(=O)c1ccc(NC(=O)Cc2cccc([N+](=O)[O-])c2)cc1
    ?, -23%
C[C@H](CO)N1C[C@H](C)[C@@H](CN(C)C(=O)Nc2ccc3c(c2)OCO3)Oc2c(NC(=O)Nc3ccccc3)cccc2C1=O
    i, 0%
C/C(=N\OCC(=O)Nc1ccccc1C(C)(C)C)c1ccc2c(c1)OCCO2
    -12%, -16%
O=[N+]([O-])c1cc2c(cc1/C=N/n1c(-c3ccccn3)n[nH]c1=S)OCO2
    -13%, 2%
Cn1cnnc1SCC(=O)Nc1ccc2nc(SCc3ccccc3)sc2c1
    /, -30%
Cc1cccn2c(=O)c3cc(C(=O)N4COCC4(C)C)n(Cc4ccccc4)c3nc12
    -8%, -13%
CC1(C)Cc2nc3oc4c(NCCCN5CCOCC5)ncnc4c3cc2CO1
    1%, 6%
COc1ccc(C(=O)Nc2nc(CC(=O)NCc3ccc(F)cc3)cs2)cc1
    i, -18%
Cc1ccc2oc3c(c(=O)c2c1)C(c1ccccc1F)N(CCCN(C)C)C3=O (stereo not drawn)
    -21%, -18%
Cc1cc(C(C)(C)C)ccc1OCCCCN1CCCC1
    -2%, -24%
O=C1CCC(C(=O)N2CCN(c3ccccc3)CC2)CN1CC1CCCCC1 (stereo not drawn)
    -1%, -10%
CC(C)(C)c1cc(C(=O)NNC(=O)c2ccc(Cl)cc2)no1
    i[7.34 µM], -3%[7.34 µM]
COc1ccc(-n2cc(CNCc3cccnc3)c(-c3cccc(F)c3)n2)cc1
    -22%, -20%
CCOC(=O)C1=C(O)/C(=C/c2ccc(CNC(=O)C(=O)Nc3ccc(C)cc3)o2)N=C1C
    /, -4%
COc1ccccc1C(=O)Nc1ccc2nc(SCC(=O)N3CCCc4ccccc43)sc2c1
    ?, ?

Later entries.
Values run as follows: VACV mCherry inh, VACV Venus inh
COc1ccc(OC)c(C2CC(=O)c3c([nH]c(C(=O)OCC4CCCCC4)c3C)C2)c1 (stereo not drawn)
    -39%, ?
Cc1ccc(/C=N\NC(=O)/C(=C\Nc2nccc(C)n2)NC(=O)c2ccccc2)cc1
    i, -22%
O=C(NCC1(c2ccccc2)CCCC1)c1ccc(Br)cc1
    -11%, -9%
CCCNC(=O)c1ccc(N2CCC3(CC2)CC(c2cccc(Br)c2)=NO3)c(NC(=O)c2ccc(Cl)c([N+](=O)[O-])c2)c1
    i, -25%
Cc1cc2c(=O)n(C)c(SCC(=O)Nc3ccc(F)cc3)nc2s1
    i, -9%
N#Cc1cc([N+](=O)[O-])cnc1N(CCO)CCO
    -13%, -3%
Cc1c(C(=O)Nc2cccc(-c3nc4ccccc4s3)c2)oc2ccccc12
    i, -13%
COc1ccc(Oc2c(C)oc3cc(OC(=O)N4CCOCC4)ccc3c2=O)cc1
    -1%, -8%
COn1c(-c2ccc(C)cc2)nc2ncccc21
    i, ?
COc1ccc(CCNC(=O)C(=O)NCC2OCCN2S(=O)(=O)c2cccs2)cc1 (stereo not drawn)
    -2%, -8%
CN1CCN(S(=O)(=O)c2cccc(C(=O)Nc3cc(C(F)(F)F)ccc3N3CCCCC3)c2)CC1
    -8%, -13%
CCN(C(=O)c1cc2c(=O)n3cccc(C)c3nc2s1)c1ccc(C)c(C)c1
    -19%, -20%
COC(=O)N(C)C[C@H]1OCc2cnnn2CCCC(=O)N([C@H](C)CO)C[C@H]1C
    -4%, 9%
COc1ccc(C(=O)Oc2ccc(/C=N/NC(=O)c3ccccc3OC)cc2[N+](=O)[O-])cc1
    -25%, -13%
C/C(=N\Nc1ccc(Cl)c(C(=O)O)c1)c1cc2ccccc2o1
    8%, -2%
Cc1ccc(NC(=O)Cn2nc(C(F)(F)F)c3c2CCC3)cc1C
    -11%, -7%
CC(Nc1nc(N2CCN(CCO)CC2)nc2ccccc12)c1ccccc1 (stereo not drawn)
    -27%, -21%
Cc1cccc(C(=O)Nc2sc3c(c2C(=O)Nc2ccccc2)CCC3)c1
    -21%, -29%
CN(Cc1ccccc1)C(=O)COC(=O)c1cc(=O)[nH]c2ccccc12
    0%, -5%
Cc1ccc(C(=O)N(Cc2cc3cccc(C)c3nc2N2CCC(O)CC2)C2CC2)cc1
    -23%, -23%

Going on with the list:
Values run as follows: VACV mCherry inh, VACV Venus inh
COc1ccc(NS(=O)(=O)c2cccc(C(=O)N/N=C(\C)c3ccncc3)c2)cc1
    -13%, -4%
O=C1C=CC(O)C2(CO)OC12 (stereo not drawn)
    -6%, -4%
Cc1ccc(C(=O)NCc2ccco2)cc1[N+](=O)[O-]
    -3%, -13%
CCOC(=O)Cc1nnc2c(Nc3ccccc3F)nc3nonc3n12
    /, ?
C[N+]1(CC(=O)OCCCC2CCCCC2)CCCC1
    -6%, -9%
CC1(C)CC(=O)C=C(CN2C(=O)c3ccccc3C2=O)C1=O
    ?, -12%
O=C(COC(=O)Cc1ccccc1[N+](=O)[O-])NCc1ccccc1Cl
    i, -12%
NNC(=O)C1CC(O)CN1S(=O)(=O)c1ccc(Cl)cc1 (stereo not drawn)
    -7%, -7%
COC(=O)/C=C/C(=O)NCc1ccco1
    /, -18%
